Six1-Eya2 inh: qHTS Assay for Inhibitors of the Six1/Eya2 Interaction; AlphaScreen GST-Six1/His-Eya2 binding, biochemical; stronger effect = lower value; control for the full effect not named in the record; Homeobox protein SIX1 (Homo sapiens) + Protein phosphatase EYA2 (Homo sapiens), …; 0.56% of 360,000 active; activity change, % (no concentration beside the values); in the data active = activity change below about -65%; inconclusive = about -30% to -65%; inactive = above about -30%; also: % is scaled to controls: 0 for no effect and ±100 for the full control effect; compound concentration not given in the record
Target sequence (O00167 whole entry, looked up): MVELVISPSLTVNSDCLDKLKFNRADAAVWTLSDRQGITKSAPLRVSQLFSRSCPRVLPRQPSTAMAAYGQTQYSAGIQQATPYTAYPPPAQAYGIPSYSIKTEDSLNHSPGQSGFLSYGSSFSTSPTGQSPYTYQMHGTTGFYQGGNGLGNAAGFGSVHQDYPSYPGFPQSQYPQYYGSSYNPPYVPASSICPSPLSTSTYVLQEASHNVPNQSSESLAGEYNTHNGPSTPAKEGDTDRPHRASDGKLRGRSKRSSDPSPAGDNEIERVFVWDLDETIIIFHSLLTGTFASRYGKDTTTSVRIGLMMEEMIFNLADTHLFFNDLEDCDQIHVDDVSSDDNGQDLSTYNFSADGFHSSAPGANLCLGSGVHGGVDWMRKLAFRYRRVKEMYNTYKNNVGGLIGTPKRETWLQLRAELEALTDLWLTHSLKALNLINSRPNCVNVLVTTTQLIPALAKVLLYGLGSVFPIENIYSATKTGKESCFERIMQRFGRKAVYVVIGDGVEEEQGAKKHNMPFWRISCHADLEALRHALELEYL
Target sequence (Q15475 whole entry, looked up): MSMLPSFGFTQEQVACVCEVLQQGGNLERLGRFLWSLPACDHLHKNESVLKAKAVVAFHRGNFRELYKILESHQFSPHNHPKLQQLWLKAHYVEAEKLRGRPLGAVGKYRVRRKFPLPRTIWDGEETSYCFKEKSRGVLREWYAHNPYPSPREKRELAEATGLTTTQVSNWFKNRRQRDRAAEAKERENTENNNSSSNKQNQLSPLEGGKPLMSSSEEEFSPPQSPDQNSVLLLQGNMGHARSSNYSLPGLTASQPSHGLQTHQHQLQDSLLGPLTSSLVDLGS
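GST-Six1 + His-Eya2 (5X stock: 250/500 nM); Tris pH 8.0, 300 mM NaCl, 0.05% BSA, 0.02% Tween 20; GSH donor/Ni acceptor beads; 1 h 37 °C dark; AlphaScreen readout.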
gsp agonist: qHTS for Agonist of gsp, the Etiologic Mutation Responsible for Fibrous Dysplasia/McCune-Albright Syndrome: qHTS; 0.13% of 340,000 active; AID 624287, 2012; gsp mutant cells, cAMP HTRF, 30 min; control for the full effect not named in the record; Potency, µM (top dose mostly 76.9 µM), for the others: top-dose activation (cAMP increase), most hits filed as activators; active = well fitted activation curve with a large enough effect; inconclusive = small, poorly fitted or top-dose-only effect, or another doubt; inactive = no such curve, though single readings can be large or run the other way; cell line not stated here;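 also: phosphodiesterase inhibitor Ro 20-1724 added with compounds to block cAMP breakdown; potency is read from the fitted curve at half-maximal effect; nearly all actives have a fitted effect of over 60% in size; about a fifth of the inactives were tested at one dose only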
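Cells stably selected in G418 were plated at 2000/well, grown 16-24 hr, then given compounds in DMSO with the PDE inhibitor […] (300 uM solution added) for 30 min at 37C; cAMP was read by HTRF.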
D2 PAM: Beta-Arrestin HTS for Positive Allosteric Modulators of the Human D2 Dopamine Receptor: Potentiators; D(2) dopamine receptor (Homo sapiens), P14416; DiscoveRx D2 beta-arrestin cells, luminescence, 90 min; 100% = 57 uM dopamine signal; potentiation, % (concentration not given with the values); 0.23% of 360,000 active; AID 624464, 2012; active = potentiation of 50% or more; inconclusive = 30% to 50%; inactive = 30% or less;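 also: compound concentration not given in the record; tested on top of an EC20 dose of dopamine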
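PathHunter D2 cells, attached overnight at 37 deg C, received compound in DMSO plus dopamine at EC20 (50 nM final) for 90 min at 37 deg C. Beta-arrestin recruitment was read as luminescence after 1 h with detection reagent at ambient temperature.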
gsp antag: qHTS for Antagonists of gsp, the Etiologic Mutation Responsible for Fibrous Dysplasia/McCune-Albright Syndrome: qHTS; gsp-mutant cells, cAMP HTRF, 30 min; control for the full effect not named in the record; 0.4% of 340,000 active; Potency, µM (doses to about 76.9 µM), without a hit: at the highest dose activity change, negative = inhibition, usual class: inhibitors; active = falling curve of any shape with a large fitted effect; inconclusive = falling curve, mostly with a smaller effect; inactive = flat or rising curve; cell line not stated here;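 also: intracellular cAMP measured with PDE inhibitor Ro 20-1724 present during compound exposure; potency is read from the fitted curve at half-maximal effect; % is scaled to controls: 0 for no effect and ±100 for the full control effect; nearly all actives have a fitted effect of over 65% in size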
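Cells in G418 medium, seeded 16-24 h, 37C; buffer exchange to DPBS + 1 mM CaCl2, 0.5 mM MgCl2, 0.05% BSA; cpds in DMSO + […] (300 uM stock), 30 min 37C; HTRF cAMP detection.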
D2 ag: Beta-Arrestin HTS for Positive Allosteric Modulators of the Human D2 Dopamine Receptor: Agonists. D(2) dopamine receptor (Homo sapiens), P14416. DiscoveRx PathHunter D2 beta-arrestin, luminescence, 90 min; 100% = 57 uM dopamine signal. activation, % (no concentration beside the values). 0.084% of 360,000 active. AID 624465, 2012; in the data active = activation above about 40%; inconclusive = about 15% to 40%; inactive = below about 15%; also: compound concentration not given in the record; the text of the record calls up to 30% inactive
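Agonist mode: compounds alone added to overnight-plated D2 PathHunter cells for 90 min at 37 C, with 57 uM final dopamine (EC100) defining full response. Beta-arrestin recruitment detected by chemiluminescent reagent, read after 1 h at ambient temperature.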
CtBP-E1A blk: qHTS Assay for Inhibitors of the CtBP/E1A Interaction. 0.49% of 340,000 active. activity change, % (no concentration beside the values). CtBP / adenovirus E1A interaction (AlphaScreen). AlphaScreen GST-E1A/His-CtBP binding, 1536-well; stronger effect = lower value; control for the full effect not named in the record. AID 651724, 2012; in the data active means activity change below about -65%; inconclusive means about -30% to -65%; inactive means above about -30%; also: % is scaled to controls: 0 for no effect and ±100 for the full control effect; compound concentration not given in the record
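AlphaScreen with 125 nM GST-E1A and 125 nM His-CtBP (5X stocks) in Tris pH 8.0, 300 mM NaCl, BSA, Tween 20, TCEP. Compounds preincubated 2 h at 37 deg C, then glutathione donor/nickel acceptor beads added for 1 h at 37 deg C in dark.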
Numbers without * were called inactive; ? = inconclusive; / = no result given; [ ] = another dose, or the depositor's remark.

smiles	Six1-Eya2 inh	gsp agonist	D2 PAM	gsp antag	D2 ag	CtBP-E1A blk
O=C(O)c1cc(/C=C/c2ccc(N3CCOCC3)c([N+](=O)[O-])c2)nc2ccccc12	2	21%	-9	10%	-0.6	-2
NS(=O)(=O)Oc1ccccc1	10	/	-6	9%	-4.3	11
O=C1CCCc2ccc3ccccc3c21	9	6%[15.4 µM]	-19	0%	0.1	8
Cc1nc2nc(SCC(=O)NCCCN3CCCCC3)nn2c(C)c1Cc1ccccc1	-4	-1%	-10	12%	-1.4	-22
Cc1ccc(-c2csc(N3CCN(CCCn4c(-c5ccncc5)nc5ccccc54)CC3)n2)cc1	-28	/	-12	?	-1.1	-21
CN(C)S(=O)(=O)c1ccc(C(=O)Nc2cccnc2)cc1	-2	1%	0	6%	-1.3	-1
COc1ccc2nc(SCC(=O)NCc3ccccc3)[nH]c2c1	1	?	-3	-5%	-4.2	-9
Cc1ccc(OCc2nnc(SCC(=O)c3ccccc3)n2Cc2ccco2)cc1	-8	1%	-4	-9%	0.4	-4
CCCCN1CCc2c1nc1ccc(Br)cc1c2N	-7	-7%	-22	4%	-0.5	-14
O=C(NC(NC(=S)Nc1cccc(C(=O)O)c1)C(Cl)(Cl)Cl)OCc1ccccc1 (configuration not stated)	-7	14%[15.4 µM]	2	10%	0.8	-6
CCCOc1ccc(Oc2cc(C)nc(SC)n2)nn1	3	-7%	-4	13%	6.7	6
O=C(NCc1ccccn1)C1CC(=O)N(C2CCCC2)C1 (configuration not stated)	-15	1%	0	-3%	-3.2	-8
CCc1ccc2nc(N(CCCN(C)C)C(=O)c3ccc(S(=O)(=O)N(C)C4CCCCC4)cc3)sc2c1	-14	-16%	-24	3%	-2.3	-21
O=c1cc(-c2ccc3c(c2)OCCO3)oc2ccc(Cl)cc12	4	6%	-7	-4%	-2.3	-6
NS(=O)(=O)c1ccc(CCNC(=O)c2cccc3ccccc23)cc1	9	-26%	-3	-1%	1.8	2
Cc1ccc(N2C(=O)CC(Sc3ncn[nH]3)C2=O)cc1C (configuration not stated)	0	-35%[inhibitor]	4	6%	4.2	-2
COc1ccc(NC(=O)CSCC(=O)N(C)CC(=O)Nc2c(C)cccc2C)cc1	4	4%	-1	9%	6.0	-3
Cc1ccc(N2CC(C(=O)Nc3nnc(C(C)C)s3)CC2=O)cc1 (configuration not stated)	1	?	-4	5%	1.1	8
CC(C)C[C@H]1CNC(=S)N1C[C@H]1CCCN1C[C@H](Cc1ccccc1)N1C[C@H](Cc2ccc(O)cc2)N(CC2CCCCCC2)C1=S	-16	/	-5	/	7.5	-8
C=C1c2ccccc2O[C@H](C(=O)OCC)[C@H]1OC	-1	/	-1	5%	-1.9	2
CCOC(=O)Cn1c(O)c(N=NC(=O)OC)c2ccccc21	6	10%[15.4 µM]	-3	-6%	-0.7	3
C=CCOc1ccc(CNCC2CCCO2)cc1 (configuration not stated)	0	-23%	-6	2%	-1.7	8
COc1cccc(N(CC(=O)Nc2ccccc2C)S(C)(=O)=O)c1	4	-19%	0	2%	1.8	10
COc1cc(OC)nc(Oc2cc(C=O)ccc2OC)n1	6	3%[15.4 µM]	-8	10%	-0.6	-8
COCCNc1cc(C)nc2cc(-c3ccc(C)cc3)nn12	8	-1%[15.4 µM]	-9	-9%	0.5	0

Reformatted with values under each structure: 3 of the compounds above
Order of values – Six1-Eya2 inh	gsp agonist	D2 PAM	gsp antag	D2 ag	CtBP-E1A blk
> Cc1ccc(N2CC(C(=O)Nc3nnc(C(C)C)s3)CC2=O)cc1 (configuration not stated)
    1	?	-4	5%	1.1	8
> COc1ccc(NC(=O)CSCC(=O)N(C)CC(=O)Nc2c(C)cccc2C)cc1
    4	4%	-1	9%	6.0	-3
> COCCNc1cc(C)nc2cc(-c3ccc(C)cc3)nn12
    8	-1%[15.4 µM]	-9	-9%	0.5	0

(list continues)
smiles	Six1-Eya2 inh	gsp agonist	D2 PAM	gsp antag	D2 ag	CtBP-E1A blk
CCCCN(CCCC)S(=O)(=O)c1ccc(C(=O)Nc2nnc(CSC)o2)cc1	-2	-23%	0	-21%	-3.2	-1
Cc1cc(C(=O)NC2CCCN(Cc3ccc(Cl)cc3)C2)c(C)o1 (configuration not stated)	-7	-5%	-36	-19%	-0.9	6
Cc1cccc(C(=O)NCCC(=O)NCc2ccccc2Cl)c1	0	-56%[inhibitor]	-3	5%	-2.5	8
CC(C)C(NC(=O)c1ccc(Cl)cc1)C(=O)O (configuration not stated)	0	4%	0	-4%	1.5	4
Cn1nc(-c2ccccc2)cc1NC(=O)c1ccc(Cl)cc1	-4	-5%	-12	-3%	5.2	/
O=c1cc(-c2ccccc2)n(S(=O)(=O)c2ccc3ccccc3c2)o1	2	-25%	-17	-1%	-5.5	-1
CCc1cccc(NC(=O)COC(=O)c2c(-c3ccccc3)noc2C)c1	7	6%	-16	/	-1.7	4
CCOC(=O)c1c(-c2ccc(Cl)cc2)cn2ccccc12	10	0%	-11	-10%	-5.5	22
CCn1c(CNC(=O)c2ccccc2Cl)cc2ccccc21	1	7%	-12	-1%	-6.6	0
O=S(=O)(Cc1ccc(Cl)cc1)c1ccccc1-c1nnc(-c2ccccc2)o1	10	7%	10	-12%	0.8	2
COc1ccc(CNc2ccccc2SC)cc1OC	-10	-2%	6	-10%	6.9	-7
COc1ccc2c(CN3CCN(C(C)=O)CC3)cc(=O)oc2c1	1	/	-7	/	-2.5	2
COc1cc2c(cc1OC)C(C(=O)O)C(c1ccc(C)o1)N(C)C2=O (configuration not stated)	3	7%	17	-3%	0.1	0
Cc1ccc(S(=O)(=O)c2nc(-c3ccco3)oc2SCC(=O)NCC2CCCO2)cc1 (configuration not stated)	-3	2%	-5	-8%	-2.8	8
Cc1ccccc1NC(=O)Cn1nnc2c(cnn2-c2ccc(F)cc2)c1=O	-5	2%	3	9%	-3.0	?
CC(C)C(NS(=O)(=O)c1ccc2c(c1)OCCO2)C(=O)NCCc1ccccn1 (configuration not stated)	0	-15%	-13	11%	-2.9	3
CN1CCCCc2c1nc1c(c2N)CCCC1	0	-1%	-10	9%	-2.4	-10
c1ccc(C(Cc2nc(-c3cccnc3)no2)c2ccccc2)cc1	2	0%	6	-23%	0.0	11
Cc1ccc2nsnc2c1NC(=O)c1ccc2c(c1)OCCO2	1	1%	-25	-1%	-2.5	11
OCCN(CC#CC(O)(c1ccccc1)c1cccc(F)c1)CCO (configuration not stated)	13	1%[15.4 µM]	-12	0%	-3.0	9
COc1ccc(C(=O)N2CCN(c3nc4ccccc4o3)CC2)cc1OC	-2	3%	-3	-14%	-6.0	-1
N#CC1=C2Sc3ccccc3N2CCCC1=O	3	-7%	-5	-12%	-1.0	8
C=CCn1cc(C(=O)NCc2cccnc2)c(=O)c2cc(S(=O)(=O)N(CC)CC)ccc21	-13	-7%	-3	-7%	2.5	-14
COc1ccc(CNC(=O)CCCn2nc(C)c3c(C)n(-c4ccc(C)cc4)nc3c2=O)cc1	0	-18%	-1	-15%	0.1	/
CCOc1ccc(NC(=O)CSc2nc3nc(C)cc(C)n3n2)cc1	-8	26%	-6	-1%	0.1	-25

The results go on.
smiles	Six1-Eya2 inh	gsp agonist	D2 PAM	gsp antag	D2 ag	CtBP-E1A blk
CC(C)(C)OC(=O)[C@H](CCCCN)NC(=O)c1nc[nH]c1C(=O)N[C@@H](CCCCN)C(=O)OC(C)(C)C	7	-26%	-4	11%	-0.9	0
NS(=O)(=O)c1cccc(NC(=O)CCCNC(=O)c2ccc(Cl)cc2)c1	-4	20%	-9	10%	-3.2	-19
S=C(NCc1ccc2[nH]c3c(c2c1)CCCC3)Nc1ccccc1	?	-1%	-6	-6%	6.1	-1
COc1cc(NC(=S)N(C)C)c(OC)cc1Cl	0	10%	1	6%	-3.8	2
CCOC(=O)c1c(C)n(C)c2ccc(OCC(O)CN3CCC(C)CC3)cc12 (configuration not stated)	-5	5%	-8	-3%	-5.8	-2
O=C(Cc1nn[nH]n1)c1ccccc1O	0	-33%	9	-7%	-1.9	10
CC1CC(Nc2ccccc2)c2ccccc2N1C(=O)c1ccncc1 (configuration not stated)	0	-6%[15.4 µM]	-2	-19%	-0.8	0
Cn1nc(-c2ccccc2)cc1NC(=O)C1CCCCC1	5	?	-21	-2%	-2.3	/
O=C(COC(=O)c1ccccc1O)NC1CCCc2ccccc21 (configuration not stated)	-2	6%	11	1%	1.5	/
O=C(CC[C@H]1O[C@@H](n2ccc(=O)[nH]c2=O)[C@H](O)[C@@H]1O)N[C@H](Cc1ccccc1)C(=O)NCCCc1ccccc1	2	/	-5	/	-3.2	1
COC(=O)CNc1nc(OC)nc(N(C)C)n1	-10	25%	-15	11%	-2.4	-4
COc1cc(NC(=O)c2ccco2)c(OC)cc1NC(=O)CSc1nnc(-c2cccs2)n1C	-15	22%	2	-8%	1.1	-9
O=C(/C=C/c1ccccc1)NC1CC2CCC1C2 (configuration not stated)	2	-3%	-13	-8%	-2.1	6
Cc1ccc(N(C(=O)Cn2nnc(-c3ccc(C)o3)n2)C(C(=O)NC2CCCC2)c2ccco2)cc1 (configuration not stated)	1	-5%	0	8%	-1.0	8
NC(CC(=O)O)c1cccc(OCc2ccccc2)c1 (configuration not stated)	5	?	1	-5%	-2.4	5
CCOC(=O)C1CCCN(C(=O)CN(c2ccc(OC)cc2)S(=O)(=O)c2c(C)noc2C)C1 (configuration not stated)	-7	-6%	-8	-2%	-3.2	?
O=C(CSc1nnc(CNC(=O)c2ccco2)o1)c1ccc(Cl)cc1	7	11%	-6	2%	-2.5	5
COc1ccc(NC(=O)Cc2coc3ccc4ccccc4c23)cc1S(=O)(=O)N1CCOCC1	-18	-25%	-21	-9%	-0.5	-1
O=C1COc2ccc(C(=O)CSc3ccc(Br)cc3)cc2N1	-11	1%	-8	-20%	-2.6	/
Cc1ccc(C)c(NC(=O)CN(C)C(=O)c2ccc3c(=O)n4c(nc3c2)CCC4)c1	-1	-2%	-29	1%	-1.3	6
CCC1CN(C(=O)N2CCC(C(=O)NCCc3ccccc3)CC2)c2ccccc2O1 (configuration not stated)	0	15%	-2	-7%	1.2	3

Source: PubChem (National Center for Advancing Translational Sciences (NCATS))
